Bioassay records from PubChem BioAssay.
TDP1 cell CPT = growth inhibition of DT40 Tdp1-/-;hTDP1 cells with camptothecin (screen for TDP1 inhibitors) | chicken DT40 Tdp1-/-;hTDP1 cells + 20 nM CPT, ATP luminescence, 48 h | AID 686979 | Potency, µM (highest dose often 46.2 µM), inactives show at the top dose activity change, negative = growth inhibition, usual class: inhibitors | 420,000 tested, 12% active; note: nearly all actives have a fitted effect of over 55% in size
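Cell growth measured by CellTiter-Glo luminescence after a minimum 48 h, 37 C compound exposure with 20 nM CPT in Tdp1-knockout DT40 cells stably expressing hTDP1, seeded 400/well; qHTS titration format.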
KAT2A inh = GCN5L2 (KAT2A) acetyltransferase inhibition | AID 504327 | GCN5L2 HAT assay, ThioGlo1 CoA-SH fluorescence | 390,000 tested, 0.21% active | Q92830 | Potency, µM (series often up to 58.9 µM), without a hit: at the top dose activity change, negative = inhibition, actives largely listed as inhibitors
Target sequence (Q92830 whole entry, looked up): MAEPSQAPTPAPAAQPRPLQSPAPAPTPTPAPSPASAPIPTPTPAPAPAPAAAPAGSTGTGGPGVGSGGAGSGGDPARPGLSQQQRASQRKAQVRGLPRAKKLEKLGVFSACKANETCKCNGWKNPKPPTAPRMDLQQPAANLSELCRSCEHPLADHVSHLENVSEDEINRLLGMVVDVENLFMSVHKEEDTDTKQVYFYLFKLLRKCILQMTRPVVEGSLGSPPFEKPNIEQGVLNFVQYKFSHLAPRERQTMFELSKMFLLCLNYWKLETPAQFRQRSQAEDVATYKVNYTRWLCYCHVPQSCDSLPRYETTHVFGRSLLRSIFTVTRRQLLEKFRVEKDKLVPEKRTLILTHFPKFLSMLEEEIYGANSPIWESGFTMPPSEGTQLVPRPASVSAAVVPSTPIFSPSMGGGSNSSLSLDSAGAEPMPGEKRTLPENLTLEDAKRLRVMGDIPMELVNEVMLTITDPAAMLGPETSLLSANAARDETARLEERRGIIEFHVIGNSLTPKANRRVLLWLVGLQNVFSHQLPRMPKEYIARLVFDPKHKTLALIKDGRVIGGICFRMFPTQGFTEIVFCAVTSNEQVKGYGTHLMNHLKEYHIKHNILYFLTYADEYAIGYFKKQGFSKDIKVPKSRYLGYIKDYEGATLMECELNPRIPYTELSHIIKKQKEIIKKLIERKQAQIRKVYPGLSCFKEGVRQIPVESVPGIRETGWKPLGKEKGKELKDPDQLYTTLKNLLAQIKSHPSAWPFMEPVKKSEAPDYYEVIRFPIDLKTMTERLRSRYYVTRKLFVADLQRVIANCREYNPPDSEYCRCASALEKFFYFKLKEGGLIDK
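Titration-based screen in which CoA formation is detected via maleimide probe ThioGlo1 (50uM) turning fluorescent on thiol reaction; substrates H3(1-25) 75uM and acetyl-CoA 70uM, GCN5L2 20nM, 20 min incubation at room temperature.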
Numbers without * were called inactive; u = inconclusive; x = not tested or not shown; [ ] = remark or other dose. Calls come from the whole dose curve; as a rule, active = well fitted curve in the direction sought with a large enough effect; inconclusive = small, poorly fitted or top-dose-only effect, or another doubt; inactive = no such curve, though single readings can be large; an effect the other way counts as inactive or inconclusive. % is set by controls: 0 for no effect and ±100 for the full control effect; potency is the fitted concentration of half-maximal effect. These rows are one share of the data; most or all hits stand in other tables.

SMILES | TDP1 cell CPT | KAT2A inh
O=C(CSc1nc(-c2ccco2)cc(C(F)(F)F)n1)NCCCN1CCOCC1 | 4% | -6%
COc1ccc(NC(=O)c2cc3c(CO)cnc(C)c3oc2=Nc2cc(OC)cc(OC)c2)cc1 | -23% | -1%
CCc1ccc(N2CN=c3s/c(=C\c4ccccc4)c(=O)n3C2)cc1 | 3% | -6%
CSCCC(NC(=O)c1ccccc1)C(=O)OCC(=O)c1ccc[nH]1 (stereo unspecified) | 3% | 0%
O=C(COCC(=O)Nc1cccc(C(F)(F)F)c1)Nc1cccc(C(F)(F)F)c1 | u | -4%
CC(NC(=O)c1ccc2nc(Cc3ccccc3)oc2c1)c1ccccc1 (stereo unspecified) | u | -4%
CCS(=O)(=O)c1cccc(C(=O)N2CCN(c3nc4c(C)ccc(Cl)c4s3)CC2)c1 | 16µM* | -10%
O=C(CSc1nnc2ccccn12)Nc1ncc(Cl)cc1Cl | -11% | 2%
COc1ccccc1OCCC(=O)Nc1cccc(S(=O)(=O)N2CCCCC2)c1 | -29% | 1%
CCN1CCN(c2nc3c(C)cccn3c(=O)c2/C=C(\C#N)C(=O)NCCCOC)CC1 | -4% | 0%
Cc1nc2ccccc2c2oc(C(=O)NCCCN3CC(C)CC(C)C3)cc12 (stereo unspecified) | u | 2%
N=c1c(C(=O)NCc2ccc(F)cc2)cc2c(=O)n3ccccc3nc2n1Cc1cccnc1 | -18% | -15%
COc1ccc(OCCn2cc(C=O)c3ccccc32)cc1 | u | -4%
CN(C)c1nc(NS(=O)(=O)c2ccc(Cl)cc2)nc(N(C)C)n1 | -4% | -2%
O=C(Cc1ccc(Cl)cc1)N1CCN(c2ccc(F)cc2)CC1 | u | -17%
CCc1cc(=O)oc2cc(C)cc(OCC(=O)NCCCn3ccnc3)c12 | -11% | -6%
CCOC(=O)C1(Cc2cccc(OC)c2)CCN(Cc2cccc3c2OCO3)CC1 | u | -17%
COC(=O)c1ccccc1NC(=O)/C=N/O | 14% | -4%
CCn1nc(NS(=O)(=O)c2ccccc2)c2cc3ccc(C)cc3nc21 | 3% | 2%
Cc1n[nH]c(C)c1CNCc1c(C(=O)N2CCCCCCC2)nc2ccc(Cl)cn12 | -23% | 0%
O=C(CCNC(=O)c1ccccc1Cl)NCC1COc2ccccc2O1 (stereo unspecified) | 1% | -7%
Cc1ccc(S(=O)(=O)N2CCN(S(=O)(=O)c3ccc(C)cc3)C2c2ccccc2)cc1 | 18µM* | -6%
CC1(C)Cc2ccccc2-c2nnc(-c3cccc(O)c3)n21 | 0% | -3%
COc1ccccc1-c1nc2cc(Cl)ccc2c(=O)n1O | -12% | 25%
CCOc1ccc(OCCC(=O)OCC(=O)N2CCN(c3ccc(OC)cc3)CC2)cc1 | -22% | -1%
Cc1cc(C(=O)OCC(=O)NCc2ccc(Cl)cc2Cl)c(C)o1 | 0% | 1%
Cn1cnnc1SCc1cccc(Br)c1 | -2% | u
CN(C(=O)c1cnccn1)c1nnc(-c2cnccn2)s1 | 0% | 3%
COc1ccc(N(CC(=O)NCc2ccco2)S(C)(=O)=O)cc1 | -13% | 3%
Cc1c[n+]([O-])n(-c2ccc(C(=O)O)cc2)n1 | -1% | -2%
COC(=O)c1cc(Br)c(=O)n(CCN(C(C)C)C(C)C)c1 | -26% | 1%
COc1ccc(CCC(=O)Nc2cc(S(=O)(=O)N3CCOCC3)ccc2OC(C)C)cc1 | -4% | 1%
CCOC(=O)C(NC(=O)c1cccnc1)(Nc1cccc(C)n1)C(F)(F)F (stereo unspecified) | 1% | -3%
CC(O)c1n(C)c(Cl)c[n+]1C (stereo unspecified) | 4% | -8%
Cc1c(C(=O)NC(C(C)C)C(C)C)cccc1[N+](=O)[O-] | -8% | 5%
CC1(C)C/C(=N\O)c2cc3c(nc2C1)CCCC3 | -23% | 1%
CC1(CCOCc2ccccc2)NC(=O)NC1=O (stereo unspecified) | 4% | x
O=C(Oc1ccc(=O)n(-c2ccccc2)n1)c1cccc(Cl)c1 | -6% | -9%
COc1ccc2nc(NC(=O)CCNC(=O)c3ccccc3Cl)sc2c1 | -1% | -2%
Nc1nc(SCC(=O)NNc2c(Cl)cc(Cl)cc2Cl)n[nH]1 | 14% | -1%

Part of the list above in order of count of non-hydrogen atoms, rising.
SMILES | TDP1 cell CPT | KAT2A inh
CC(O)c1n(C)c(Cl)c[n+]1C (stereo unspecified) | 4% | -8%
Cn1cnnc1SCc1cccc(Br)c1 | -2% | u
Cc1c[n+]([O-])n(-c2ccc(C(=O)O)cc2)n1 | -1% | -2%
CC1(C)C/C(=N\O)c2cc3c(nc2C1)CCCC3 | -23% | 1%
Cc1c(C(=O)NC(C(C)C)C(C)C)cccc1[N+](=O)[O-] | -8% | 5%
Nc1nc(SCC(=O)NNc2c(Cl)cc(Cl)cc2Cl)n[nH]1 | 14% | -1%
CC1(C)Cc2ccccc2-c2nnc(-c3cccc(O)c3)n21 | 0% | -3%
Cc1cc(C(=O)OCC(=O)NCc2ccc(Cl)cc2Cl)c(C)o1 | 0% | 1%
COc1ccc2nc(NC(=O)CCNC(=O)c3ccccc3Cl)sc2c1 | -1% | -2%
CCOC(=O)C(NC(=O)c1cccnc1)(Nc1cccc(C)n1)C(F)(F)F (stereo unspecified) | 1% | -3%
COc1ccc(CCC(=O)Nc2cc(S(=O)(=O)N3CCOCC3)ccc2OC(C)C)cc1 | -4% | 1%

The results go on.
SMILES | TDP1 cell CPT | KAT2A inh
COc1ccc(CNC(=O)CNC(=O)c2ccc(Br)o2)cc1OC | 0% | -5%
NCC(c1ccccc1Cl)c1c[nH]c2ccccc12 (stereo unspecified) | 5.2µM* | 1%
O=C(Nc1ccc(NS(=O)(=O)c2ccc([N+](=O)[O-])cc2)cc1)c1ccco1 | -24% | -2%
CSc1nn(-c2ccc(C(=O)OCC(=O)NC(=O)NC(C)C)cc2)c(=S)s1 | -21% | -5%
COc1ccc(-n2ncc(C(=O)N3CCN(c4ncccn4)CC3)c2C2CCN(C(=O)OC(C)(C)C)CC2)cc1 | -15% | -7%
CCc1ccc(NCc2cc3cc4c(cc3n(CC(=O)Nc3ccc(C)cc3)c2=O)OCO4)cc1 | x | -3%
CCN(CC(=O)Nc1ccc2c(c1)OCCO2)C(=O)/C=C/c1ccc([N+](=O)[O-])cc1 | 0% | -6%
Cc1ccsc1/C=N/Nc1ccc(C(=O)O)cc1 | 5% | -12%
CN(C)CC[C@@H](c1ccccc1)c1ccccn1 | x | 3%[21.4 µM]
Cc1c(C(=O)OCC(=O)N2CCCC2)cccc1[N+](=O)[O-] | -18% | -5%
Cc1c(NCc2cc(Cl)cc(Cl)c2O)c(=O)n(-c2ccccc2)n1C | u | -14%
NC(=O)NC(=O)C(c1ccccc1)N1CCN(S(=O)(=O)Cc2ccccc2)CC1 (stereo unspecified) | -3% | 3%
CCCOc1ccc(NC(=O)c2cc3cc(C)ccc3[nH]2)cc1 | -29% | -13%
CCOc1ccc(C(=O)c2ccncc2)cc1 | -2% | 1%
Cc1ccc(C(=O)NC2CCN(C(=O)Nc3ccccc3)CC2)cc1 | -17% | -7%
CN(Cc1ccccc1)C(=O)c1ccc(NC(=O)Cc2cccc(NC(=O)C3CCCN(C(=O)C4CCC4)C3)c2)cc1 (stereo unspecified) | u | -1%
CN=C1CC(C)(C)CC(=O)/C1=C(/O)CCCN1C(=O)c2ccccc2C1=O | 5% | -6%
Cc1ccccc1-n1c(Cn2c(=O)sc3ccccc32)nnc1SCC(=O)N1CCCC1 | -19% | 8%
COc1ccc(C(=O)OC(C)CN2CCN(C)CC2)cc1OC (stereo unspecified) | 9% | -2%
COc1ccc(OCC(=O)N2CCN(S(=O)(=O)c3ccc(Cl)cc3)CC2)cc1 | -20% | 1%

Single records, from the list above. Values in the order: TDP1 cell CPT, KAT2A inh
Profile of `CCOC(=O)C(NC(=O)c1cccnc1)(Nc1cccc(C)n1)C(F)(F)F` (stereo unspecified) = 1%, -3%
Profile of `Nc1nc(SCC(=O)NNc2c(Cl)cc(Cl)cc2Cl)n[nH]1` = 14%, -1%
Profile of `Cc1ccsc1/C=N/Nc1ccc(C(=O)O)cc1` = 5%, -12%

New compounds follow.
SMILES | TDP1 cell CPT | KAT2A inh
O=C(O)c1cccc(Nc2ccc([N+](=O)[O-])c3nonc23)c1 | -10% | 2%
Cc1cc(NC(c2cccnc2)c2c(C)[nH]c3ccccc23)no1 (stereo unspecified) | u | -6%
CCOC(=O)N1CCN(c2cc(N3CCOCC3)c(F)cc2[N+](=O)[O-])CC1 | -29% | 2%
Cc1ccc(S(=O)(=O)Nc2ccc3cn[nH]c3c2)cc1C | -20% | -4%
COc1ccc(-c2noc(CCC(=O)N3CCC(c4cc(C)ccc4C)CC3)n2)cc1 | 1% | -10%
O=C(NCc1ccccc1)NCc1cccs1 | -2% | 2%
O=C(Nc1ccc(Cl)cc1F)c1cc(S(=O)(=O)NC2CCCCCC2)ccc1F | 21µM* | -20%
COc1ccc(-c2noc(CCCC(=O)NCc3ccco3)n2)cc1OC | -1% | -7%
Cc1ccccc1N1CCN(S(=O)(=O)Cc2ccccc2)CC1 | 9% | 2%
COc1cc(OC)cc(C(=O)NC2CCN(Cc3nnnn3Cc3cccs3)CC2)c1 | -23% | 0%
CCOc1ccc(N(CC(=O)Nc2ccccc2OC)S(C)(=O)=O)cc1 | u | 0%
CCCN(CC(=O)Nc1ccc(Cl)cc1Cl)C(=O)/C=C/c1cc(OC)ccc1OC | u | -16%
CCCCCCn1cc(C(=O)OCC)c(=O)c2cc(F)c(F)cc21 | u | 1%
Cn1c(SCC(=O)c2c(N)n(C)c(=O)n(C)c2=O)nnc1-c1ccc(F)cc1 | -18% | -7%
O=C(NC1CCCc2ccccc21)C1CCN(S(=O)(=O)c2cccc(C(F)(F)F)c2)CC1 (stereo unspecified) | u | -1%
CCOc1ccc2nc(-c3ccccc3)nc(SCC(=O)Nc3ncc(C)s3)c2c1 | u | -2%
Cc1ccc(NC(=O)CSc2ncc(-c3ccccc3)[nH]2)cc1 | u | -1%
CC1CN=C(Nc2cccc(S(=O)(=O)N(C)C)c2)S1 (stereo unspecified) | -13% | -5%
O=C(NCCCN=C1NS(=O)(=O)c2ccccc21)c1ccco1 | -18% | -1%
Cc1oc(-c2ccccc2F)nc1CS(=O)(=O)CC(=O)NCCCN(C)C1CCCCC1 | -24% | -3%
COc1ccc(C2=C(Nc3ccc(F)cc3)c3ccccc3C2=O)cc1 | u | 1%
O=C(CSc1ncn[nH]1)N/N=C/c1ccc(C(F)(F)F)cc1 | -6% | -7%
COc1ccc(N2C(=O)C3C4C=CC(C5CC45)C3C2=O)c([N+](=O)[O-])c1 (stereo unspecified) | -19% | -7%
O=C(NCc1cccnc1)c1ccc(Cl)cc1[N+](=O)[O-] | -7% | -7%
CC(C)C(OC(=O)c1cccs1)C(=O)NCc1cccs1 (stereo unspecified) | -28% | 1%
Cc1cc(NC(=O)COC(=O)C2CC(=O)N(c3ccc(Br)cc3)C2)no1 (stereo unspecified) | -1% | -5%
Cc1noc(/C=C/c2ccco2)c1S(=O)(=O)N1CCC(C(=O)Nc2ccc(Cl)cn2)CC1 | u | 1%
CCCCN(C(=O)CNC(=O)c1ccco1)C(C(=O)NC1CCCC1)c1ccc(OC)cc1 (stereo unspecified) | -14% | -16%
COc1ccc2oc(=O)c(C(=O)NCC3CCCO3)cc2c1 (stereo unspecified) | 0% | -20%
COc1ccccc1C(=O)N1CC(=O)Nc2ccc(C)cc2C1c1ccc(F)cc1 (stereo unspecified) | -9% | 2%
CS(=O)(=O)c1ccccc1C(=O)N1CCN(Cc2ccccc2)CC1 | -15% | -9%
Cc1ccc(S(=O)(=O)N(C)C)cc1-n1c(SCC(=O)Nc2ccccc2)nc2ccccc2c1=O | u | -8%
O=C(c1cccc(Cl)c1)N1CCN(S(=O)(=O)c2ccc(Cl)s2)CC1 | u | -5%
Cc1ccc2c(c1)N(C(=O)CCC(=O)NC1CCC(C)CC1)CCO2 (stereo unspecified) | u | u
COc1ccc2c(c1)c(C(=O)N/N=C/c1cn(C)c3ccccc13)c(C)n2C | u | -8%
CCc1nc(SCC(=O)NCC2CCCO2)c2oc3ccccc3c2n1 (stereo unspecified) | -8% | -2%
COc1ccccc1CCc1nnc(CCC(=O)N(C)Cc2cccc3ncccc23)o1 | u | 0%
COc1ccc(/C=C/C(=O)O)cc1S(=O)(=O)N1CCc2ccccc21 | 4% | -19%
Cc1nn(C)c(Cl)c1CN1CCC(CO)(CC2CCCCO2)CC1 (stereo unspecified) | 4% | 0%
COC(=O)c1ccc(OC(=O)CN2C(=O)c3ccccc3C2=O)cc1 | 2% | -1%
Cc1ccc(C)c(CN2C(=O)c3ccccc3S(=O)(=O)c3ccc(C(=O)N4CCOCC4)cc32)c1 | -14% | -9%
CC1CCCC(C)N1C(=O)COC(=O)c1ccc(O)cc1 (stereo unspecified) | -9% | -3%
Cc1cc(OCC(=O)NC(Cc2c[nH]c3ccc(O)cc23)C(=O)O)c2c(C)c(C)c(=O)oc2c1 (stereo unspecified) | -1% | u
CCC1CCCCN1C(=O)c1sc2nc(C)nc(N(CC)CC)c2c1C (stereo unspecified) | u | 3%
